TNF necrop inh: TNF-alpha cell death inhibition in Jurkat FADD-/- cells. Jurkat FADD-/- TNF necroptosis rescue, ATP luminescence, 24 h; 0 = TNF only, 100 = no-TNF cells. activation (protection from cell death), % at 10 µM. 220,000 tested, 0.068% active. AID 463075;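 active means activation, meaning protection from cell death, of at least 50% relative to plate controls; inactive means activation below 50%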;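 further: necroptosis triggered by 40 ng/mL TNF-alpha added together with compound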
PERK inh: blocks human PERK kinase | CHO PERK-DD fusion, SEAP luminescence translation reporter | 220,000 tested, 0.17% active | AID 1416 | inhibition, % at 5.6 µM | Q9NZJ5;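 active means inhibition above the mean inhibition of all tested compounds plus 3 SD, set separately per screening campaign, cut at about 2.9% in these data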;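 further: PERK kinase domain activated by AP20187 dimerizer at 100 nM; 0% = DMSO with dimerizer and 100% = rapamycin at 8.4 µM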
Mdm2 ligase inh: inhibitors of human Mdm2 E3 ubiquitin ligase. signal enhancement, % at 5 µM. AID 1230. Q00987. 210,000 tested, 0.11% active. cell-based MDM2 ubiquitination luciferase reporter, 2 h; 0 = plate control, 100 = twice control, blank-subtracted;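 active means signal enhancement of 30% or more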;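 further: luminescence tracks abundance of the self-degrading MDM2-luciferase fusion protein; higher signal means inhibition of MDM2 E3 ligase activity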
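System: stable MDM2–luciferase fusion reporter cells / Input: 2000 cells seeded into each well / Schedule: 4 h settle plus 2 h compound, 37 °C / Compound: single-point 5 µM / Buffer or medium: cells held in DMEM / Benchmarks: control and blank well means / Evaluation: percent signal gain over controls, blank-subtracted / Measured by: luciferase luminescence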
L929 necroptosis: blocks zVAD induced death of L929 cells; L929 zVAD necroptosis rescue, ATP luminescence, 24 h; with zVAD 60 µM; viability rescue, % at 10 µM; 220,000 tested, 0.38% active; AID 1377;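 active means activation, scaled between plate controls, above about 75%, limit read from the data; inactive means activation under that limit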;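 further: 0% = zVAD with DMSO and 100% = DMSO alone without zVAD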
Rad51 HR inh: Rad51 (human) homologous recombination inhibition; 200,000 tested, 0.085% active; hRad51 DNA strand exchange, fluorescence dequenching; inhibition, % at 10 µM;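 active means inhibition above 40% at the single screening dose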;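 further: 0% = DMSO control wells and 100% = blanks with heterologous ssDNA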
Target sequence (Q06609 whole entry, looked up): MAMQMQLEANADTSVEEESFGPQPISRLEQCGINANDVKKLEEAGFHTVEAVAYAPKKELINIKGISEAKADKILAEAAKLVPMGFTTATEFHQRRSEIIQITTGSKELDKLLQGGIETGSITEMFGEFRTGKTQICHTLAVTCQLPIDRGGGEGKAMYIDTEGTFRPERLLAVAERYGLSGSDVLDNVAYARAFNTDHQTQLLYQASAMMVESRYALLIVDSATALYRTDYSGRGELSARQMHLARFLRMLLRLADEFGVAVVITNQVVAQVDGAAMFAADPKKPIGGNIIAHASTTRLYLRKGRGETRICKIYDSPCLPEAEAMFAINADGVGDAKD
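System: human Rad51 nucleoprotein filaments preassembled on unlabelled ssDNA. Reagent: labelled 47-mer dsDNA for strand exchange. Schedule: 30-min compound preincubation and 15-min exchange, both room temperature. Measured by: FRET fluorescence dequenching, excitation 485 nm, emission 520 nm. Read-out: Fluorescence-based percent inhibition, control- and blank-normalised. Benchmarks: plate controls and plate blanks.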
* marks the source's active call; other numbers are inactive results; & = joins results of further samples.

`CCn1cc(C(=O)O)c(=O)c2cc(F)c(N3CCN(C)CC3)cc21` gave TNF necrop inh 1.0, PERK inh 1.1, Mdm2 ligase inh -0.7, L929 necroptosis 1.4 and Rad51 HR inh 8.1&-2.9.
For C[C@@H](c1ncncc1F)[C@](O)(Cn1cncn1)c1ccc(F)cc1F the results were PERK inh 0.8 and Rad51 HR inh -6.7.
`CCCCOc1ccc2c(c1)/C(=C(\C(Cl)=C(Cl)Cl)[N+](=O)[O-])N2` gave TNF necrop inh 1.2, PERK inh 0.2, Mdm2 ligase inh 9.2, L929 necroptosis 4.2 and Rad51 HR inh 10.8.
CC1(C)S[C@@H]2[C@H](NC(=O)[C@H](N)c3ccc(O)cc3)C(=O)N2[C@H]1C(=O)O was read as TNF necrop inh 0.0, PERK inh 1.3, L929 necroptosis 64.8 and Rad51 HR inh -0.5.
`CC(CCc1ccccc1)NCC(O)c1ccc(O)c(C(N)=O)c1` (centres undefined) gave TNF necrop inh 4.9, PERK inh -0.2, L929 necroptosis -1.2 and Rad51 HR inh 0.7.
For NC(N)=Nc1nc(CSCC/C(N)=N/S(N)(=O)=O)cs1 the results were TNF necrop inh -1.3, PERK inh 0.0, L929 necroptosis 1.4 and Rad51 HR inh 4.2.
For Cc1cnc(C(=O)NCCc2ccc(S(=O)(=O)NC(=O)NC3CCCCC3)cc2)cn1 the results were TNF necrop inh 0.9, PERK inh 1.1, L929 necroptosis 0.5 and Rad51 HR inh -8.0.
O=C1C(CCS(=O)c2ccccc2)C(=O)N(c2ccccc2)N1c1ccccc1 (centres undefined) was read as TNF necrop inh 1.3, PERK inh -1.4, L929 necroptosis 2.6 and Rad51 HR inh -4.7.
O=C1NN(c2ccccc2)C(=O)/C1=C/c1ccc(Sc2ccc(Cl)cc2)o1 was read as TNF necrop inh -8.7, PERK inh 0.9, L929 necroptosis 0.6 and Rad51 HR inh -1.3.
CC(=O)N1CCN(c2ccc(OC[C@H]3CO[C@](Cn4ccnc4)(c4ccc(Cl)cc4Cl)O3)cc2)CC1 was read as TNF necrop inh -3.5, PERK inh -0.4&-1.7, L929 necroptosis -0.2 and Rad51 HR inh -10.2.
For CCCNCC(O)COc1ccccc1C(=O)CCc1ccccc1 (centres undefined) the results were TNF necrop inh 5.6, PERK inh -1.6, L929 necroptosis 0.1 and Rad51 HR inh -7.0.
Screening C#CCN(C)CCCOc1ccc(Cl)cc1Cl returned TNF necrop inh 0.0, PERK inh 0.8, L929 necroptosis 0.2 and Rad51 HR inh 0.6.
CC(C)[N+]1(C)[C@@H]2CC[C@H]1CC(OC(=O)C(CO)c1ccccc1)C2 (some centres undefined) was read as TNF necrop inh 0.0, PERK inh 1.0, L929 necroptosis 4.5 and Rad51 HR inh 1.4.

4 compounds already listed, sorted by number of heavy atoms, smallest number first.
Screening C#CCN(C)CCCOc1ccc(Cl)cc1Cl returned TNF necrop inh 0.0, PERK inh 0.8, L929 necroptosis 0.2 and Rad51 HR inh 0.6.
`CCn1cc(C(=O)O)c(=O)c2cc(F)c(N3CCN(C)CC3)cc21` gave TNF necrop inh 1.0, PERK inh 1.1, Mdm2 ligase inh -0.7, L929 necroptosis 1.4 and Rad51 HR inh 8.1&-2.9.
CC1(C)S[C@@H]2[C@H](NC(=O)[C@H](N)c3ccc(O)cc3)C(=O)N2[C@H]1C(=O)O was read as TNF necrop inh 0.0, PERK inh 1.3, L929 necroptosis 64.8 and Rad51 HR inh -0.5.
For Cc1cnc(C(=O)NCCc2ccc(S(=O)(=O)NC(=O)NC3CCCCC3)cc2)cn1 the results were TNF necrop inh 0.9, PERK inh 1.1, L929 necroptosis 0.5 and Rad51 HR inh -8.0.

Entries shown so far containing a carbonyl joined to an NH by a bond outside any ring (3):
CC1(C)S[C@@H]2[C@H](NC(=O)[C@H](N)c3ccc(O)cc3)C(=O)N2[C@H]1C(=O)O was read as TNF necrop inh 0.0, PERK inh 1.3, L929 necroptosis 64.8 and Rad51 HR inh -0.5.
`CC(CCc1ccccc1)NCC(O)c1ccc(O)c(C(N)=O)c1` (centres undefined) gave TNF necrop inh 4.9, PERK inh -0.2, L929 necroptosis -1.2 and Rad51 HR inh 0.7.
For Cc1cnc(C(=O)NCCc2ccc(S(=O)(=O)NC(=O)NC3CCCCC3)cc2)cn1 the results were TNF necrop inh 0.9, PERK inh 1.1, L929 necroptosis 0.5 and Rad51 HR inh -8.0.

Assay outcomes deposited in PubChem BioAssay by several laboratories.

This is a subset; rates above refer to the full screens.
